# TRPML1 agonist = qHTS for Agonists of the Human Mucolipin Transient Receptor Potential 1 (TRPML1); Mucolipin-1 (Homo sapiens), Q9GZU1; TRPML1-expressing cells, Ca2+ dye fluorescence, FDSS; host cell line not named in the record; reference of the full effect not given here; activation, % (no concentration beside the values); hit rate 0.12% among 410,000; AID 624414, 2012; in the data active = activation above about 50%; inconclusive = about 30% to 50%; inactive = below about 30%; note: 0% is about no effect; the text of the record puts the active cut at 80%
# Target sequence (Q9GZU1 whole entry, looked up): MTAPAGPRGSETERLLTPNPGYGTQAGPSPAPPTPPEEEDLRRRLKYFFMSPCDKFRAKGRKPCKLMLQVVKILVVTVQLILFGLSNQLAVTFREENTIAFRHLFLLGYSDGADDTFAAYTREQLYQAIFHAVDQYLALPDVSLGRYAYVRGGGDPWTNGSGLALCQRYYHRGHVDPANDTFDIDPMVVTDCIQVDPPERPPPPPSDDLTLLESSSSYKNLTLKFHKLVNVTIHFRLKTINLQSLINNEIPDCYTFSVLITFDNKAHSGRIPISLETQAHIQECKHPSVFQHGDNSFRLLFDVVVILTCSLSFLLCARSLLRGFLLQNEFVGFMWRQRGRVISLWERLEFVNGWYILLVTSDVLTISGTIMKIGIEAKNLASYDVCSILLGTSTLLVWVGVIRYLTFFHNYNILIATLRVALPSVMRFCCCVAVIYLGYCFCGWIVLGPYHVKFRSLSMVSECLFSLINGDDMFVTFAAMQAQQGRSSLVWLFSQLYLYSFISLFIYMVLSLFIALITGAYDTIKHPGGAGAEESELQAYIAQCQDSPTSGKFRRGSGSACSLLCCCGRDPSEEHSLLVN
#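 Tetracycline-induced TRPML1-DL cells are seeded and incubated overnight before loading with a no-wash Ca2+ dye and quencher. Agonist activity is taken from the 110 s fluorescence read following compound pin-transfer on an FDSS, before EC80 54-4 challenge.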
# TRPML1 inh = qHTS for Inhibitors of the Human Mucolipin Transient Receptor Potential 1 (TRPML1); activity change, negative = inhibition, % (concentration not given with the values); TRPML1-inducible cells, Ca2+ dye fluorescence, FDSS; stronger effect = lower value; inhibition of EC80 agonist-evoked calcium signal; AID 624415, 2012; hit rate 0.02% among 390,000; in the data active means activity change below about -50%; inconclusive means about -30% to -50%; inactive means above about -30%;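 note: stimulus is agonist 54-4 at its EC80 concentration; % is set by controls: 0 for no effect and ±100 for the full control effect; compound concentration not given in the record; the text of the record puts the active cut at -80%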
#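 Calcium fluorescence in TRPML1-DL cells induced overnight with Tet: a 110 s read after compound pin addition, then a 110 s antagonist read after challenge with 54-4 at 4 uM final (EC80).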
# Starred values were filed as active, the others as inactive.
SMILES,TRPML1 agonist,TRPML1 inh
COc1cc([N+](=O)[O-])ccc1NC(=O)N1CCC2(CC1)Nc1cc(F)ccc1-n1cccc12,-0.1,-3.2
CC(=O)c1ccc(NC(=O)c2ccc(-c3nc(COc4ccc(C)cc4)c(C)o3)cc2)cc1,0.8,14.9
CCn1c(C)c(C2N3CC4(C)CN2CC(C)(C3)C4=O)c2ccccc21 (stereo not given),1.4,65.3
CC(=O)c1c(C)oc2c(Cl)cc(NS(=O)(=O)c3cc(C)c(C)cc3C)cc12,-0.5,4.9
COCCn1c(C)cc(O)c(C(c2ccccc2)N2CCN(c3ccc(F)cc3)CC2)c1=O (stereo not given),-0.8,8.7
COc1ccc(C(C(=O)NCc2ccccc2)N(C(=O)Cn2nnc3ccccc32)c2cccc(OC)c2)cc1 (stereo not given),-0.4,7.9
CCn1c(CN2CCCCC2)nc2cc(NC(=O)c3cc(OC)c(OC)c(OC)c3)ccc21,-0.1,-2.2
Cc1cc(C)cc(Oc2nc3c(C)cccn3c(=O)c2/C=C(\C#N)c2nc3ccccc3[nH]2)c1,-0.8,-20.0
Cc1ccccc1CCNC(=O)c1ccc2c(c1)nc1n2CCC(C)C1 (stereo not given),0.9,-20.6
COc1cc(C2c3c(-c4cc(C)ccc4O)n[nH]c3C(=O)N2CCCO)ccc1OCCC(C)C (stereo not given),-0.2,9.5

# Five entries already listed, arranged by formula weight, smallest number first:
SMILES,TRPML1 agonist,TRPML1 inh
CCn1c(C)c(C2N3CC4(C)CN2CC(C)(C3)C4=O)c2ccccc21 (stereo not given),1.4,65.3
Cc1cc(C)cc(Oc2nc3c(C)cccn3c(=O)c2/C=C(\C#N)c2nc3ccccc3[nH]2)c1,-0.8,-20.0
COc1cc([N+](=O)[O-])ccc1NC(=O)N1CCC2(CC1)Nc1cc(F)ccc1-n1cccc12,-0.1,-3.2
COCCn1c(C)cc(O)c(C(c2ccccc2)N2CCN(c3ccc(F)cc3)CC2)c1=O (stereo not given),-0.8,8.7
COc1cc(C2c3c(-c4cc(C)ccc4O)n[nH]c3C(=O)N2CCCO)ccc1OCCC(C)C (stereo not given),-0.2,9.5

# (more compounds)
SMILES,TRPML1 agonist,TRPML1 inh
Cc1ccc(C(=O)Nc2ccc3nc(N4CCCCC4)cc(C)c3c2)cc1F,1.3,11.3
Cc1ccc(CNC(=O)Cn2cc(S(=O)(=O)Cc3ccccc3F)c3ccccc32)cc1,2.2,11.4
O=C(COc1ccccc1)NCCc1csc(-c2ccc(Cl)cc2)n1,2.7,-10.8
CCc1nc(SC)ncc1C(=O)NCc1cccc(Br)c1,4.7,-13.8
CCN(c1ccc(C)cc1C)S(=O)(=O)c1nnc(NC(=O)c2ccccc2OC)s1,1.3,48.8
Cc1ccccc1Cn1c(CN2CCC(C(=O)NCCc3ccccc3)CC2)cc2ccccc21,2.2,-12.1
COCCOC(=O)C1=C(C)NC(=O)NC1c1cn(-c2ccccc2)nc1-c1ccccc1 (stereo not given),-0.2,25.8
CCCC12CN3CC(CCC)(CN(C1)C3c1c(C)[nH]c(=O)[nH]c1=O)C2=O (stereo not given),0.0,-7.8
O=C(Cn1cnc2nc3c(cc2c1=O)CCCC3)N1CCN(c2ccccc2)CC1,1.1,-11.6
COc1ccc(Br)c(C(=O)Nc2cc3c(cc2N2CCCCC2)n(C)c(=O)c(=O)n3C)c1,2.1,31.2
Cc1cccc(NC(=O)CSc2cc(C)c3ccccc3n2)c1,3.8,10.7
Cc1ccc2nc(CN3CCN(C(=O)Nc4ccc(C)c(F)c4)CC3)oc2c1,1.6,51.1
CCOc1ccc(S(=O)(=O)Nc2cccc(-c3ccc(OCC)nn3)c2)cc1,1.5,-12.7
CCOC(=O)c1cccc(NC(=O)COc2ccc3c(C)cc(=O)oc3c2)c1,-0.6,3.5
CCCSc1nnc2n(-c3cccc(C)c3)c(=O)c3c4c(sc3n12)CCCC4,4.3,-8.8
O=C(Cn1cc(SCc2c(F)cccc2Cl)c2ccccc21)N1CCCC1,2.5,-0.5
CCOC(=O)c1scc(-c2ccc(C)cc2)c1S(=O)(=O)Nc1cc(Cl)ccc1OC,0.1,19.8
CCCC(=O)Nc1ccc(-c2nc3ncccc3o2)cc1C,-0.3,-1.7
O=C(CN(c1ccc(Cl)c(C(F)(F)F)c1)S(=O)(=O)c1ccccc1)N1CCc2ccccc2C1,1.0,61.6
Cc1ccc(NC(=O)c2nn(C)c3c2CS(=O)(=O)c2ccccc2-3)c(Cl)c1,0.6,-0.3
COc1ccccc1NC(=O)NCc1cccn1Cc1ccccc1,0.1,1.3
CC1CCN(C(=O)Cn2c(=O)n(CC3CCC(C(=O)NC(C)C)CC3)c(=O)c3sccc32)CC1 (stereo not given),-0.3,-4.7
CCOCCc1nnc(NC(=O)C(=O)c2cc(C)n(-c3ccc(C)cc3C)c2C)s1,1.3,40.4
CC1=C(C(=O)Nc2cccc(C(F)(F)F)c2)C2(CCCCCC2)OC1=O,0.5,-16.1
COC(=O)c1cnn(-c2ccc(C(=O)Nc3ccc(OC(F)(F)F)cc3)cc2)c1N,-1.0,-10.2
CCOC(=O)c1ccc(NC(=O)c2ncn(-c3ccccc3)n2)cc1,-1.0,9.2
COc1cc2c(cc1OC)C(c1ccc(Cl)cc1)N(c1cccc(C#N)c1)C(=O)C2 (stereo not given),-0.6,-0.9
CCOc1ccc(C(=O)NCCc2csc(-c3cccc(F)c3)n2)cc1OCC,4.6,5.4
Cc1ccc(OCc2ccc(-c3nc(C#N)c(N4CCN(c5cccc(Cl)c5)CC4)o3)o2)cc1,2.2,-17.1
CC(=O)N1CCCc2cc(S(=O)(=O)N3CCC(C(=O)NCc4ccccc4Cl)CC3)ccc21,1.3,48.1
O=C1Cc2cc(S(=O)(=O)Nc3ccc(OC(F)(F)F)cc3)cc3c2N1CCC3,0.1,-8.7
Cc1ccc(-n2ncc3c(NC4CCCC4)ncnc32)cc1,0.1,33.7
CCc1ccc(CNC(=O)c2ccc3nc(C(C)C)oc3c2)cc1,0.0,-6.5
CCc1ccc(S(=O)(=O)c2nnn3c2nc(Nc2cc(OC)ccc2OC)c2sccc23)cc1,-0.8,-13.6
CCOc1ccc(CC(=O)NCCS(=O)(=O)N2CCN(c3ccc(OC)cc3)CC2)cc1,1.4,5.4
Cc1ccc2nc(/C(C#N)=C/c3ccc(-c4ccc(F)cc4F)o3)[nH]c2c1,21.9,-1.1
COc1ccc(-c2coc3c2c(C)cc2oc(=O)cc(C)c23)cc1,-0.3,-14.0
Cc1ccc(C)c(N2CCN(C(=O)C3CCN(Cc4nc(-c5cccc(Cl)c5)oc4C)CC3)CC2)c1,1.4,7.4
COc1ccc(-c2nc(-c3ccccc3)c(-c3ccc(O)cc3)[nH]2)cc1,2.7,13.4
COc1ccccc1N1CCN(c2cc(C)nc3nc(-c4ccc(Cl)cc4)nn23)CC1,-0.8,-0.8
COc1ccc(Nc2oc(/C=C/c3cccc(OC)c3)nc2C#N)cc1,1.3,-1.0
Cn1c(=O)cc(SCC(=O)N2CCN(c3ccccc3F)CC2)c2ccccc21,-1.1,-0.3
Cn1c(=O)c2sccc2n2c(CCCC(=O)Nc3ccc(Cl)cc3)nnc12,1.3,-0.5
CCOc1ccc(CC(=O)NC2CC(=O)N(c3ccc(C)c(C)c3)C2)cc1 (stereo not given),-0.7,-2.4
COc1cc(Nc2nc(SCC(=O)c3ccc(Br)cc3)nc3ccccc23)cc(OC)c1,3.3,27.7
COc1cc2c(cc1OC)C(COc1ccc(C(C)C)cc1)N(C(=O)COc1ccccc1)CC2 (stereo not given),1.3,38.0
CCC(=O)N1c2ccccc2CC1C(=O)N1CCN(c2ccccc2F)CC1 (stereo not given),0.6,-13.3
CC(C)c1ccc(NS(=O)(=O)c2ccc3[nH]cc(C(=O)NC4CCCC4)c(=O)c3c2)cc1,4.9,9.3
CCn1c(=O)n(CC)c2cc(N3CCCCC3)c(NC(=O)Nc3cc(Cl)ccc3OC)cc21,2.8,9.4
COc1cccc(-n2c(-c3ccc(C)cc3)cc3c2CC(C)(C)CC3=O)c1,-0.2,34.2
# The list continues:
SMILES,TRPML1 agonist,TRPML1 inh
NS(=O)(=O)c1ccc(NC(=O)COc2ccc(S(=O)(=O)NC3CCCCC3)cc2)cc1,-0.8,-13.5
CC(C)CCNC(=O)c1cccc(-n2cnc3cccnc32)c1,-0.2,-8.1
CCc1ccccc1NS(=O)(=O)c1ccc2c(c1)CC(=O)N2,0.0,-7.8
CCOC(=O)N1CCc2c(sc3c2c(=O)n(-c2ccc(CC)cc2)c(=O)n3CC(=O)c2ccccc2)C1,1.8,10.3
Cc1ccc2c(c1)-c1c(c(C(=O)NCCc3ccccc3)nn1C)CS2,-0.5,-25.8
Fc1cccc(CSc2nc(NCCc3ccccc3)c3ccccc3n2)c1,4.1,14.1
CC(=O)N1CCCc2cc(S(=O)(=O)N3CCN(c4ccc(F)cc4)CC3)ccc21,3.3,9.3
COc1ccc(NC(=O)c2cnn(-c3ccc(C)cc3)c2-n2cccc2)cc1Cl,0.0,-12.8
Cc1ccc(NC(=O)NCCOCCn2c(=O)oc3ccccc32)cc1F,-1.1,-25.7
O=C(NCc1ccccn1)c1nn(-c2ccccc2F)nc1CO,0.8,-14.7

# Complete entries as entered above. Values in the order: TRPML1 agonist | TRPML1 inh
# Fc1cccc(CSc2nc(NCCc3ccccc3)c3ccccc3n2)c1 is listed as 4.1 | 14.1
# Cc1ccc2c(c1)-c1c(c(C(=O)NCCc3ccccc3)nn1C)CS2 is listed as -0.5 | -25.8
# CC(=O)N1CCCc2cc(S(=O)(=O)N3CCN(c4ccc(F)cc4)CC3)ccc21 is listed as 3.3 | 9.3
# CC(C)CCNC(=O)c1cccc(-n2cnc3cccnc32)c1 is listed as -0.2 | -8.1
# CCOC(=O)N1CCc2c(sc3c2c(=O)n(-c2ccc(CC)cc2)c(=O)n3CC(=O)c2ccccc2)C1 is listed as 1.8 | 10.3

# (further entries)
SMILES,TRPML1 agonist,TRPML1 inh
COc1ccc(CNC(=O)c2ccc(NC(=O)N3CC4CCCN4c4ccccc43)cc2)cc1 (stereo not given),-0.2,12.0
Cc1ccc(C)c(CN2C(=O)CSc3ccc(C(=O)NCc4ccc(F)cc4)cc32)c1,-0.6,-11.9
CCOCCCNC(=O)C1CCN(c2nc3ccc(Cl)cc3[nH]2)CC1,0.8,-9.7
CCN1CCN(C(=O)c2ccc3c(c2)N(Cc2ccccc2F)C(=O)c2ccccc2S3=O)CC1 (stereo not given),-0.6,-20.0
C=CCC(CC=C)(CNC(=O)C(=O)Nc1ccc(C(=O)OCC)cc1)c1ccccc1,7.0,-20.4
COc1cc(OC)c(N(C)C(=O)c2c(C)oc3ncn(CC(C)C)c(=O)c23)cc1Cl,-0.7,-21.0
CCOc1ccc(CCNC(=O)c2cccc(-n3c(C)nc4cccnc43)c2C)cc1,0.9,12.0
Cc1cccc(N(CC(=O)Nc2ccc(Br)cc2)S(C)(=O)=O)c1C,0.2,6.8
COc1ccc(C(=O)NCCc2csc(-c3ccc(Cl)cc3)n2)c(OC)c1,2.1,-24.4
CCOc1cc(CNC(=O)Cn2c(-c3cccs3)cc3cc(F)ccc32)ccc1OC,0.0,-8.1
CC(C)Sc1ncc(Cl)c(C(=O)Nc2c(C(=O)Nc3ccccc3)oc3ccccc23)n1,-0.5,-11.2
CN(C)c1ccc(CNC(=O)c2cc3ccccn3n2)cc1,-0.8,-4.3
COC(=O)c1ccccc1NC(=O)CSc1cc(-c2ccccc2)nc(C)n1,1.1,-3.2
CCN(C(=O)Cn1c(C(=O)OC)cc2sccc21)c1cccc(C)c1,0.2,30.9
Cc1ccc(SCC(=O)Nc2ccc3oc(-c4cccc(C)c4)nc3c2)cc1,3.1,-2.7
Cc1ccc(S(=O)(=O)Cc2ccc(C(=O)N3CCN(c4cccc(Cl)c4)CC3)o2)cc1,-0.9,-12.1
Cc1ccc(C(=O)Nc2c(C(=O)Nc3ccc(C)c(C)c3)sc3nc(C)cc(C)c23)cc1,2.6,7.0
Cc1cc(C)n(-c2nc(C)c(C)c(=O)n2CC(=O)Nc2ccc([N+](=O)[O-])cc2)n1,-0.6,18.2
CCOC(=O)c1c(NC(=O)/C=C/c2ccc(OCC)cc2)sc(C)c1C,1.6,17.6
Clc1ccc(CCNC(c2nnc(-c3ccccc3)o2)c2ccccc2Cl)cc1 (stereo not given),1.4,8.6
Cc1cc(C)cc(NC(=O)Cn2cc(S(=O)(=O)NC(C)(C)C)c(S(=O)(=O)NC(C)(C)C)c2)c1,1.4,58.1
COc1ccc(CCNC(=O)Cn2cc(S(=O)(=O)Cc3ccccc3Cl)c3ccccc32)cc1OC,-0.1,30.4
CCN(Cc1ccccc1)S(=O)(=O)c1ccc2c(c1)CC(C)N2C(=O)C1CCC1 (stereo not given),24.5,24.4
Cc1nc(-c2cccc(NC(=O)Nc3ccc([N+](=O)[O-])cc3)c2)no1,0.6,-8.4
O=C(Nc1ccc(F)cc1F)C1CCN(C(=O)c2cnn(-c3ccccc3)c2-n2cccc2)CC1,0.1,15.8
CN(CC(=O)Nc1ccc(Br)cc1)S(=O)(=O)c1cccc2nsnc12,2.7,9.6
Cc1nn(-c2ccccc2)c2nc(C3CC3)cc(C(=O)Nc3ccc(F)cc3)c12,-0.2,7.3
COc1ccc(N2CCN(C(=O)C(C)n3c(=O)cc(C(F)(F)F)c4c(C)nn(C)c43)CC2)cc1 (stereo not given),0.2,-3.5
COc1ccccc1OCC(=O)NCC(c1ccc(Cl)cc1)N1CCOCC1 (stereo not given),0.1,-23.6

# Assay outcomes as filed in PubChem.

# This is a subset; the hit share may differ from the screen's.
